HIV Env fusion – inhibitors of HIV-1 Env-driven cell-cell fusion, primary screen, HeLa-JRFL effector, CEM21 target cells, luciferase | inhibition, % at 12.3 µM | 360,000 compounds, 1.1% hits | AID 651610, 2012;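 active = mean replicate inhibition score of at least 50 and every replicate individually at or above 50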;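 also: 0% = plate neutral controls and 100% = maraviroc near 300 nM; one replicate is shown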
Starred values were filed as active, the others as inactive; [ ] = dose if it differs, or a comment. These rows are one share of the data. The share of hits here may be higher or lower than overall.

HIV Env fusion,SMILES
-12.6[16.7 µM],CN1C(=O)c2cc(NC(=O)c3ccccc3F)ccc2OC[C@@H]2O[C@@H](CC(=O)NCc3ccc4c(c3)OCO4)CC[C@H]21
5.3[16.7 µM],C[C@@H]1CN([C@H](C)CO)C(=O)CCCn2cc(nn2)CO[C@@H]1CN(C)C(=O)Nc1ccc(N2CCCCC2)cc1
-15.8[16.7 µM],CNC[C@H]1OCCCC[C@@H](C)Oc2ccc(NC(=O)NC(C)C)cc2C(=O)N([C@@H](C)CO)C[C@H]1C
5.5,COC(=O)[C@H](Cc1ccccc1)N1C[C@@H](N2CCC[C@H]2C)CS1(=O)=O
18.3,COC(=O)c1cc2c(c3c4cc(C)ccc4n(S(=O)(=O)c4ccc(OC)cc4)c13)C(=O)N(Cc1ccc(C(F)(F)F)cc1)C2
-35.6,COC(=O)C1=C(C)N(Cc2ccccc2C(F)(F)F)C(=NCc2ccc(C(F)(F)F)cc2)NC1CCc1ccccc1 (stereo not given)
-1.2[16.7 µM],CN(C)c1ccc2c(c1)[C@@H]1C[C@H](CC(=O)NCC3CC3)O[C@@H](CO)[C@@H]1O2
-9.5,CC(C)(C)OC(=O)N1CCC[C@@H]1C(=O)N1CCC[C@H]1C(=O)NCc1ccccc1
-30.2,Cc1cc2c(c(=O)o1)[C@@]1(C(=O)N(C)c3ccccc31)C1=C(CC(C)(C)CC1=O)O2
6.8[16.7 µM],CN1c2ccc(-c3cccc(F)c3)cc2[C@H]2[C@H](CCN2C(=O)C2CCC2)[C@@H]1CO
-61.8,COc1cccc(C(=O)N[C@H](C(=O)N2CCC[C@H]2C(=O)NCCc2ccccc2Cl)C2CCCCC2)c1
-1.3[16.7 µM],COc1cccc(-c2ccc3n(c2=O)C[C@@H]2[C@@H](CO)[C@H](C(=O)N(C)C)N(C(=O)C4CC4)[C@H]32)c1
15.8,CCOC(=O)[C@@H]1CSCCS(=O)(=O)N1C(=O)[C@H](Cc1ccccc1)NC(=O)OC(C)(C)C
-4.0[16.7 µM],Cc1ccc(CN(C)C[C@H]2OCc3cnnn3CCCC(=O)N([C@@H](C)CO)C[C@H]2C)cc1
6.6[16.7 µM],CC(C)NC(=O)Nc1ccc2c(c1)C(=O)N([C@@H](C)CO)C[C@H](C)[C@@H](CN(C)C(=O)NC1CCCCC1)OCCCC[C@@H](C)O2
9.1[16.7 µM],CO[C@H]1CN(C)C(=O)c2cc(NC(=O)c3cccc(F)c3)ccc2OC[C@@H](C)N(C)C[C@H]1C
3.1[16.7 µM],COCC(=O)Nc1ccc2c(c1)C(=O)N(C)C[C@H](OC)[C@@H](C)CN(Cc1ccccn1)[C@@H](C)CO2
4.6[16.7 µM],COC(=O)[C@H]1[C@H](CO)[C@H]2Cn3c(ccc(-c4ccccc4F)c3=O)[C@H]2N1Cc1ccncc1
-4.6[16.7 µM],COc1ccc(S(=O)(=O)N[C@H]2CC[C@H](CCNC(=O)Cc3ccccn3)O[C@H]2CO)cc1
-2.2[16.7 µM],CO[C@@H]1CN(C)C(=O)c2ccc(NC(=O)c3cc(C)on3)cc2OC[C@@H](C)N(C(=O)C2CC2)C[C@@H]1C
1.4,CC(C)N(C[C@@H]1CSCCS(=O)(=O)N1)C(C)C
20.0[16.7 µM],CO[C@H]1CN(C)C(=O)c2ccc(NS(=O)(=O)c3cccc(F)c3)cc2OC[C@H](C)N(C(=O)Cc2cccnc2)C[C@@H]1C
88.0*,C[C@H]1CN([C@@H](C)CO)C(=O)c2c(c3ccccc3n2C)-c2ccccc2CO[C@H]1CN(C)C(=O)Nc1cccc(F)c1
7.8[16.7 µM],O=C(NCC1CCCCC1)[C@@H]1N[C@@H]2c3ccc(-c4ccccc4F)c(=O)n3C[C@@H]2[C@H]1CO
-3.0[16.7 µM],CC=Cc1ccc2n(c1=O)C[C@@H]1[C@@H](CO)[C@H](C(=O)NCc3ccccn3)[C@H]2N1C (mixture of isomers)
-23.1[16.7 µM],O=C(O)c1ccccc1CN1C[C@H]2O[C@H](CNS(=O)(=O)c3ccc(Cl)cc3)CC[C@H]21
1.4[16.7 µM],COc1cccc(S(=O)(=O)N2C[C@H](O)COC[C@H]3O[C@@H](CC(=O)Nc4ccccc4)CC[C@@H]32)c1
-16.6[16.7 µM],COc1cccc(NC(=O)N(C)C[C@@H]2Oc3ncc(C#Cc4ccncc4)cc3C(=O)N([C@H](C)CO)C[C@@H]2C)c1
-11.8[16.7 µM],C[C@H]1CN([C@@H](C)CO)C(=O)Cc2cc(NC(=O)CCN3CCOCC3)ccc2O[C@@H]1CN(C)Cc1ccc(-c2ccccc2)cc1
-2.2[16.7 µM],CCCC#Cc1ccc2c(c1)O[C@H](CN(C)C(=O)Nc1ccccc1F)[C@H](C)CN([C@H](C)CO)S2(=O)=O
17.0[16.7 µM],C/C=C/c1cccc(-c2nc(C(=O)NCc3ccccn3)cc3c2[C@H](CCO)N([S@@](=O)C(C)(C)C)C3)c1
46.2[16.7 µM],C[C@@H]1CN([C@H](C)CO)S(=O)(=O)c2ccc(C#CCN(C)C)cc2O[C@H]1CN(C)C(=O)C1CCCCC1
-11.3[16.7 µM],Cc1ccc(S(=O)(=O)Nc2ccc3c(c2)C(=O)N([C@H](C)CO)C[C@H](C)[C@H](CN(C)Cc2ccc(C(F)(F)F)cc2)O3)cc1
34.6,O=C(CSc1nc2ccc(Nc3nc(N4CCOCC4)nc(N4CCOCC4)n3)cc2s1)Nc1ccccc1
12.4[16.7 µM],C[C@H](CO)N1C[C@H](C)[C@@H](CN(C)Cc2cccc(F)c2)OCc2ccccc2-c2ccccc2C1=O
-3.3,O=C(NCc1ccccc1)[C@@H]1CCCN1C(=O)[C@@H](NS(=O)(=O)c1ccc(F)cc1F)c1ccccc1
-2.9[16.7 µM],O=C(NCCn1cc(CN2C(=O)COC[C@H]2c2ccccc2)nn1)Nc1ccccc1
-7.1[16.7 µM],C[C@H]1CN([C@@H](C)CO)C(=O)Cc2cc(NC(=O)CCCN(C)C)ccc2O[C@@H]1CN(C)C(=O)Nc1ccc2c(c1)OCO2
16.6,Cc1ccc2oc(=O)c3cc(C(=O)NCCCN4CCC(C)CC4)sc3c2c1
15.8,CC(C)[C@H](NC(=O)c1ccco1)C(=O)N1CCC[C@H]1C(=O)NCc1ccccc1

Structures from the list above that contain an aryl methoxy group, in the order listed:
HIV Env fusion,SMILES
18.3,COC(=O)c1cc2c(c3c4cc(C)ccc4n(S(=O)(=O)c4ccc(OC)cc4)c13)C(=O)N(Cc1ccc(C(F)(F)F)cc1)C2
-61.8,COc1cccc(C(=O)N[C@H](C(=O)N2CCC[C@H]2C(=O)NCCc2ccccc2Cl)C2CCCCC2)c1
-1.3[16.7 µM],COc1cccc(-c2ccc3n(c2=O)C[C@@H]2[C@@H](CO)[C@H](C(=O)N(C)C)N(C(=O)C4CC4)[C@H]32)c1
-4.6[16.7 µM],COc1ccc(S(=O)(=O)N[C@H]2CC[C@H](CCNC(=O)Cc3ccccn3)O[C@H]2CO)cc1
1.4[16.7 µM],COc1cccc(S(=O)(=O)N2C[C@H](O)COC[C@H]3O[C@@H](CC(=O)Nc4ccccc4)CC[C@@H]32)c1
-16.6[16.7 µM],COc1cccc(NC(=O)N(C)C[C@@H]2Oc3ncc(C#Cc4ccncc4)cc3C(=O)N([C@H](C)CO)C[C@@H]2C)c1

Molecules from the list above containing a Cl atom, in the order listed:
HIV Env fusion,SMILES
-61.8,COc1cccc(C(=O)N[C@H](C(=O)N2CCC[C@H]2C(=O)NCCc2ccccc2Cl)C2CCCCC2)c1
-23.1[16.7 µM],O=C(O)c1ccccc1CN1C[C@H]2O[C@H](CNS(=O)(=O)c3ccc(Cl)cc3)CC[C@H]21

(further entries)
HIV Env fusion,SMILES
-15.1[16.7 µM],O=C(C[C@H]1CC[C@H]2[C@@H](COC[C@@H](O)CN2C(=O)c2ccccc2)O1)N1CCOCC1
-29.3,COc1ccc2nc3n(c(=O)c2c1)-c1ccccc1C(=O)NC3Cc1ccccc1 (stereo not given)
10.6[16.7 µM],C[C@H]1CN([C@@H](C)CO)C(=O)Cc2cc(NC(=O)Nc3ccc4c(c3)OCO4)ccc2O[C@@H]1CN(C)S(=O)(=O)c1ccc(F)cc1
-2.5[16.7 µM],CO[C@H]1CN(C)C(=O)c2ccc(NC(=O)c3cccc(F)c3)cc2OC[C@H](C)N(CC2CC2)C[C@H]1C
-9.1[16.7 µM],CCCN1[C@@H]2c3ccc(C4=CCCCC4)c(=O)n3C[C@@H]2[C@@H](CO)[C@@H]1C(=O)NC1Cc2ccccc2C1
-34.9[16.7 µM],COc1ccccc1C#Cc1cnc2c(c1)C(=O)N([C@@H](C)CO)C[C@@H](C)[C@@H](CN(C)S(=O)(=O)c1cn(C)cn1)O2
-17.1[16.7 µM],C[C@@H]1CN([C@H](C)CO)C(=O)c2cccc(NS(=O)(=O)c3cccs3)c2O[C@@H]1CN(C)C(=O)Nc1ccccc1
9.8[16.7 µM],CN1C(=O)c2cc(NC(=O)Cc3cccs3)ccc2OC[C@@H]2O[C@@H](CC(=O)NCCc3ccncc3)CC[C@@H]21
-2.5[16.7 µM],CO[C@@H]1CC[C@@H]2CCN(C)C(=O)[C@H](C)[C@H](OC)CN(C)C(=O)c3cc(C#N)ccc3OC[C@H]1O2
29.3[16.7 µM],CCCNC(=O)Nc1ccc2c(c1)C(=O)N(C)C[C@@H](OC)[C@H](C)CN(C(=O)c1ccccc1F)[C@H](C)CO2
5.2[16.7 µM],COc1ccc(S(=O)(=O)N(C)C[C@@H]2Oc3ccc(NC(=O)Nc4cccc5ccccc45)cc3CC(=O)N([C@@H](C)CO)C[C@H]2C)cc1
-12.5[16.7 µM],CO[C@@H]1CN(C)C(=O)c2cc(NC(C)=O)ccc2OC[C@@H](C)N(S(C)(=O)=O)C[C@@H]1C
-5.2[16.7 µM],Cc1ccc(S(=O)(=O)Nc2ccc3c(c2)C(=O)N([C@H](C)CO)C[C@H](C)[C@@H](CN(C)C(=O)NC(C)C)O3)cc1
22.8[16.7 µM],CN1C(=O)c2cc(NC(=O)Cc3cccs3)ccc2OC[C@@H]2O[C@H](CC(=O)N[C@H]3CCN(Cc4ccccc4)C3)CC[C@@H]21
1.0[16.7 µM],COc1ccc(CN2C[C@@H](O)COC[C@H]3O[C@@H](CC(=O)N(C)C)CC[C@@H]32)cc1
6.7[16.7 µM],CO[C@H]1CN(C)C(=O)c2cc(NS(C)(=O)=O)ccc2OC[C@@H](C)N(C)C[C@H]1C
-9.5[16.7 µM],Cc1ccc(S(=O)(=O)Nc2ccc3c(c2)C(=O)N(C)[C@H]2CC[C@@H](CC(=O)NCCc4ccncc4)O[C@@H]2CO3)cc1
-13.2[16.7 µM],CO[C@H]1CN(C)C(=O)c2cc(NC(=O)Cc3ccccc3)ccc2OC[C@H](C)N(C(C)=O)C[C@@H]1C
2.7[16.7 µM],CO[C@H]1CN(C)C(=O)c2cc(NS(=O)(=O)c3cccc(F)c3)ccc2OC[C@H](C)N(C(=O)Cc2cccnc2)C[C@@H]1C
50.7[16.7 µM],C[C@H](CO)N1C[C@H](C)[C@@H](CN(C)C(=O)CCC(F)(F)F)OCc2ccccc2-c2ccccc2C1=O
-7.8[16.7 µM],CCC(=O)N1C[C@H](O)COC[C@H]2O[C@@H](CC(=O)NCc3cc(F)cc(F)c3)CC[C@@H]21
7.6,COc1ccccc1CCn1cnc(-c2cccc(Cl)c2)c1CC(C)C
9.4[16.7 µM],C[C@@H]1CN([C@H](C)CO)C(=O)c2cc(N(C)C)ccc2O[C@H]1CN(C)C(=O)NC1CCCCC1
15.7[16.7 µM],C[C@@H]1CN([C@H](C)CO)C(=O)CCCn2cc(nn2)CO[C@@H]1CN(C)Cc1cccc(O)c1
-11.4[16.7 µM],O=C(C[C@H]1C=C[C@@H](NC(=O)CCN2CCCCC2)[C@H](CO)O1)Nc1ccccc1
-10.1[16.7 µM],C[C@@H]1CN([C@@H](C)CO)C(=O)Cc2cc(NS(=O)(=O)c3ccccc3)ccc2O[C@H]1CN(C)C(=O)Nc1ccc2c(c1)OCO2
0.1[16.7 µM],COc1ccc(C[C@@H]2CCc3cnnn3COC[C@H](c3ccccc3)NC2=O)cc1
27.2[16.7 µM],COC(=O)C[C@@H]1C[C@H]2c3cc(NC(=O)C4CCOCC4)ccc3O[C@H]2[C@H](CO)O1
-14.0[16.7 µM],CN(C)CC(=O)Nc1ccc2c(c1)[C@@H]1C[C@@H](CC(=O)N3CCc4ccccc4C3)O[C@H](CO)[C@@H]1O2
-9.6[16.7 µM],CN(C)c1ccc2c(c1)[C@@H]1C[C@@H](CC(=O)O)O[C@@H](CO)[C@@H]1O2
-0.2[16.7 µM],O=C(Nc1ccccc1F)N[C@H]1CC[C@H](CCNC(=O)C2CCCCC2)O[C@@H]1CO
-187.8[16.7 µM],Cc1cc(C(=O)Nc2ccc3c(c2)C(=O)N(C)[C@@H]2CC[C@H](CC(=O)NCc4ccc(-c5ccccc5)cc4)O[C@H]2CO3)no1
-10.2[16.7 µM],C[C@H]1CN([C@@H](C)CO)C(=O)c2cccc(NC(=O)Nc3cccc4ccccc34)c2O[C@@H]1CN(C)S(=O)(=O)c1ccc(F)cc1
12.9,CCc1cc2c(nc1CC)CCCN2S(=O)(=O)c1ccc(C#N)cc1
-8.8[16.7 µM],COc1ccc(S(=O)(=O)N2C[C@H](O)COC[C@H]3O[C@@H](CC(=O)N[C@@H]4CCN(Cc5ccccc5)C4)CC[C@@H]32)cc1
-14.2[16.7 µM],CC(C)NC(=O)Nc1ccc2c(c1)C(=O)N([C@H](C)CO)C[C@H](C)[C@H](CN(C)CC1CC1)OCCCC[C@H](C)O2
-5.2[16.7 µM],CO[C@@H]1CN(C)C(=O)c2cc(NC(=O)NC(C)C)ccc2OC[C@@H](C)N(CC2CC2)C[C@H]1C
-49.6[16.7 µM],COC(=O)C[C@@H]1C=C[C@@H](NC(=O)Nc2ccc(C(F)(F)F)cc2)[C@H](CO)O1
-5.7,O=[N+]([O-])c1ccc(OC2OCC(O)C(O)C2O)cc1 (stereo not given)
-33.2[16.7 µM],CO[C@@H]1CN(C)C(=O)c2cc(NC(=O)C3CC3)ccc2OC[C@H](C)N(C(=O)C2CCOCC2)C[C@H]1C
4.9[16.7 µM],CCS(=O)(=O)Nc1ccc2c(c1)C(=O)N(C)[C@@H]1CC[C@@H](CC(=O)NCCOC)O[C@H]1CO2
